High-throughput results (PubChem)
PMP22 txn = PMP22 gene transcription modulation; S16 Pmp22-F2sN Schwann cells (luciferase reporters placed in the Pmp22 gene), FLuc/NLuc coincidence luminescence, 24 h; AID 1508649; 2% of 43,000 active; Potency, µM (top dose mostly 57.5 µM), for inactives: at the top dose activity change, negative = inhibition, usual class: inhibitors; active = clear falling dose curves in both reporters; inconclusive = both reporters move, but less clearly or upward; inactive = either reporter flat; the % is the NLuc reporter signal; further: on the % scale 0 is the no-effect control and ±100 the full control effect; some results filed as inactive show a strong effect at the top dose
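S16(c9) Schwann cells with FLuc/NLuc coincidence reporter in the Pmp22 3' UTR; compounds pin-transferred, 24 h at 37C. Dual-luciferase read: FLuc first, then NLuc after Stop&Glo, each 10 min at room temperature.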
HTT prom inh = inhibits huntingtin promoter activity; HEK293 HTT promoter firefly luciferase reporter (activity 0% = vehicle and -100% = no light), 24 h; 0.93% of 48,000 active; AID 1508623; Potency, µM (titrated, usually from 57.5 µM), inactives show at the highest dose activity change, negative = inhibition, actives largely listed as inhibitors; active means well fitted inhibition curve with a large enough effect; inconclusive means small, poorly fitted or top-dose-only effect; inactive means no such curve, though single readings can be large or run the other way; further: nearly all actives have a fitted effect of over 50% in size
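HEK293 cells carrying firefly luciferase reporters were seeded at 2,500 per well in Opti-MEM and cultured for 24 h. They were then treated with compounds at up to 57.5 uM final for 24 h at 37 degrees C before Dual-Glo luminescence readout.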
* marks the source's active call; other numbers are inactive results; ? = inconclusive; · = no result given; & = joins results of further samples; [ ] = another dose, or the depositor's remark. Potency means the concentration at half of the fitted maximal effect.

SMILES	PMP22 txn	HTT prom inh
Cn1c(=O)oc2cc(S(=O)(=O)N3CCCC(C(=O)NCCc4ccc(Cl)cc4)C3)ccc21 (stereo not drawn)	-35%	?
CCOC(=O)c1c(Oc2ccc(OC)cc2)nnc(-c2ccccc2)c1-c1ccccc1	-31%	?
CCOc1ccc(-c2nc(CSCC(=O)NCCc3ccc(OCC)c(OCC)c3)c(C)o2)cc1	?	14µM*
CCc1ccc(OCC(=O)N(Cc2ccco2)Cc2ccco2)cc1	?	-12%
O=C(CC1N=C2c3ccccc3N=C(SCc3ccccc3F)N2C1=O)NCCc1ccccc1 (stereo not drawn)	?	-27%
Cc1ccc(OCc2nc(-c3ccc(C(=O)NCCc4ccc(Cl)cc4)cc3)oc2C)cc1	-2%	-19%
Cc1cccc(N2C(=O)CSC23C(=O)N(Cc2cccc(C(F)(F)F)c2)c2ccccc23)c1 (stereo not drawn)	?	?
CCn1cc(S(=O)(=O)c2ccccc2)c(=O)c2cc(F)c(N3CCN(c4ccccc4)CC3)cc21	-12%	-17%
COc1ccc(CNC(=O)c2ccc(Sc3ccc(Cl)cc3)c(NC(C)=O)c2)c(OC)c1	-12%	?
COc1ccc(-n2c(C)nnc2SCc2nc(-c3ccc(OC)c(OC)c3)no2)cc1	?	-23%
CCc1ccc(NC(=O)C2CCCN2S(=O)(=O)c2cccc3nsnc23)cc1 (stereo not drawn)	-14%	?
Cc1ccc(-c2noc(CN(C3CCCCC3)S(=O)(=O)c3ccc(C)cc3)n2)cc1	?	?
Cc1ccc(-n2nc3c(=O)n(CCCC(=O)NCc4ccccc4F)nc(C)c3c2C)cc1	-16%	-19%
Cc1nn(C)c2c1c(-c1ccccc1)cc(=O)n2CC(=O)NC(C)(C)C	?	-24%
COc1ccc(NC(=O)c2sc3nc[nH]c(=O)c3c2C)cc1	7%	80%[activator]

The list goes on, overlapping the part above by 5 compounds.
SMILES	PMP22 txn	HTT prom inh
CCc1ccc(NC(=O)C2CCCN2S(=O)(=O)c2cccc3nsnc23)cc1 (stereo not drawn)	-14%	?
Cc1ccc(-c2noc(CN(C3CCCCC3)S(=O)(=O)c3ccc(C)cc3)n2)cc1	?	?
Cc1ccc(-n2nc3c(=O)n(CCCC(=O)NCc4ccccc4F)nc(C)c3c2C)cc1	-16%	-19%
Cc1nn(C)c2c1c(-c1ccccc1)cc(=O)n2CC(=O)NC(C)(C)C	?	-24%
COc1ccc(NC(=O)c2sc3nc[nH]c(=O)c3c2C)cc1	7%	80%[activator]
CCOC(=O)c1cc(S(=O)(=O)NCc2ccc(F)cc2)[nH]n1	73%	-18%
CCc1cccc(NC(=O)c2ccc(CNS(=O)(=O)c3ccc4c(c3)C(C)(C)C(=O)N4C)cc2)c1	-6%	?
CC(CNC(=O)C1CCN(S(=O)(=O)c2ccc3c(ccn3C)c2)CC1)c1ccccc1 (stereo not drawn)	-2%	0%
CC1=C(C(=O)OC2CCCC2)C(c2c(F)cccc2Cl)CC(=O)N1 (stereo not drawn)	-25%	?
Cc1c(C(=O)Nc2c(F)cccc2F)sc2ncn(Cc3ccccc3F)c(=O)c12	10%	-28%
CCCCN(CC)C(=O)C1CCC(CNS(=O)(=O)c2cccc3nsnc23)CC1 (stereo not drawn)	?	?
CCC(C(=O)Nc1cc(OC)ccc1OC)n1nc(-c2ccccc2)c2c(c1=O)CCCC2 (stereo not drawn)	?	?
CC(C)(C(=O)NCC(F)(F)C(F)(F)F)C(=O)N[C@@H]1C(=O)Nc2ccccc2-c2ccccc21	·	?
O=C(NC1(C(F)(F)F)C(=O)Nc2c1c(=O)[nH]c(=O)n2CCc1ccccc1)c1ccc(Cl)cc1 (stereo not drawn)	-14%	-14%
CCc1ccc(-n2c(N3CCN(c4cccc(C)c4C)CC3)nc3ccccc3c2=O)cc1	-10%	-28%
O=C(NCc1ccco1)c1ccc(Cn2c(SCc3ccccc3)nc3cccnc32)cc1	-8%	-9%
COC(=O)c1c(NC(=O)c2ccc(S(=O)(=O)N3CCC(C)CC3)cc2)sc2c1CCN(C)C2	?	?
CCNc1oc(-c2ccc(COc3ccc(Cl)cc3)o2)nc1C#N	-51%	?
Cc1ccc(N2CCN(C(=O)NCc3noc4ccccc34)CC2C)cc1 (stereo not drawn)	-3%	-28%
CCc1ccc(NC(=O)CSC2=Nc3ccccc3C3=NC(CCC(=O)NCc4cccs4)C(=O)N23)cc1 (stereo not drawn)	?	-2%
COc1ccc(-c2cc(-c3nc(-c4cc(OC)c(OC)c(OC)c4)no3)[nH]n2)c(OC)c1	-60%	-15%
O=C(Nc1cccc(Cl)c1)c1cc(S(=O)(=O)N2CCCc3ccccc32)ccc1F	?	?
O=C(O)Cc1cccc2ccccc12	·	2%
O=S(=O)(c1ccc(-c2cnc(C3CC3)o2)cc1)N1CCN(c2ccccc2)CC1	?	-18%
O=C(NCc1ccco1)c1ccc2c(c1)N(Cc1ccc(Cl)cc1)C(=O)c1ccccc1S2=O (stereo not drawn)	-16%	?
O=C(CCS(=O)(=O)c1cccc2nonc12)Nc1c(F)cccc1F	-33%	-12%
CCOc1ccc(NC(=O)N2CCC(CN3CCc4ccccc4C3)CC2)cc1	-32%	-24%
COc1ccc(S(=O)(=O)Nc2ccc3oc4c(c3c2)C(=O)CC(C)(C)C4)cc1	-26%	?
Cc1ccc(Cl)cc1N1CCN(C(=O)C2CCCN(Cc3nc(-c4cccc(Cl)c4)oc3C)C2)CC1 (stereo not drawn)	?	35µM*
O=C(NCCCO)C(=O)Nc1c2c(nn1-c1ccc(F)cc1)CSC2	-14%	-12%
O=C(NCc1ccccc1)c1cnc(N2CCCCC2)c2ccccc12	-13%	6%
Cc1ccc(NC(=O)C2CCCN2S(=O)(=O)c2ccc3c(c2)n(C)c(=O)c(=O)n3C)cc1C (stereo not drawn)	-5%	-12%
CCOC(=O)c1c(C)c(-c2ccccc2)n(CC(=O)Nc2cccc(C)c2C)c1C	?	0%
COc1ccc(OC)c(NC(=O)N(C)CCc2c(C)nn(C)c2C)c1	-9%	17%
Cc1nc(-c2ccc(S(=O)(=O)NCc3ccc(F)cc3)cc2)co1	-25%	-29%
CCn1cc(C(=O)N2CCN(c3cc(Cl)ccc3C)CC2)c2cc(OC)c(OC)cc2c1=O	?	-6%
Cc1ccc2c(=O)cc(CSc3ccccc3)[nH]c2c1C	-12%	18%
O=C(CN1CCN(Cc2ccc(F)cc2)C1=O)NCc1ccccc1Cl	7%	-6%
CCOCCCNC(=O)c1c[nH]c2ccc(S(=O)(=O)N(C)c3ccc(Cl)cc3F)cc2c1=O	-23%	?
CCOC(=O)c1c(S(=O)(=O)N2CCC(C(=O)Nc3cccc(C)n3)CC2)c(C)n(C)c1C	9%	-8%
Cc1ccc(NC(=O)c2sc3nc(-c4cccs4)ccc3c2N)cc1F	-12%	4%
COc1cc(-c2nc3n(n2)C(c2ccc(F)cc2)C(C(N)=O)=C(C)N3)cc(OC)c1OC (stereo not drawn)	7%	2%
Cc1ccc(S(=O)(=O)N2CCN(Cc3cc(=O)n4nc(-c5ccccc5Cl)sc4n3)CC2)cc1	-4%	-6%
COc1cc(C)ccc1OCCSc1nc(-c2cccc(C)c2)nc2cc(=O)[nH]n12	3%	-10%
Cc1ccc(CNC(=O)Cn2c(=O)ccc3cc(S(=O)(=O)N4CCCC4)ccc32)cc1	-9%	6%
COc1ccc(CNC(=O)C2CCN(c3nc4ccccc4[nH]3)CC2)cc1OC	-8%	3%
COc1cc(Cl)c(C)cc1NC(=O)Cn1cc(S(=O)(=O)N2CCC(C)CC2)c2ccccc2c1=O	6%	-8%
CN(C)c1ccc(CNC(=O)CCCn2ccc3cc(S(=O)(=O)N4CCCC4)ccc32)cc1	?	?
CCC(C)NC(=O)CCc1c(C)nc2c(c(C)nn2-c2ccc(C)cc2)c1C (stereo not drawn)	-5%	-13%
COc1ccc(CNC(=O)c2cc3c(-c4ccc(Cl)cc4)nn(C)c3s2)cc1	-5%	?
COc1cccc(NS(=O)(=O)c2ccc3[nH]c4c(c3c2)CCCCCC4)c1	-14%	?
CCOC(=O)C1CCN(C(c2ccccc2OC)c2c(O)cc(C)n(CCOC)c2=O)CC1 (stereo not drawn)	25%	-13%
O=C(NCc1cccc(F)c1)C1CCN(c2nn3cc(-c4ccc(F)cc4)nc3s2)CC1	-17%	0%
COC(=O)c1ccc(C(=O)OC)c(NC(=O)CN(c2ccccc2)S(=O)(=O)N(C)C)c1	-10%	-29%
Cc1ccc(C)c(CN2C(=O)C(=O)c3ccccc32)c1	?	-24%
CCOc1ccccc1Nc1sc(C(=O)c2ccccc2)c(N)c1S(=O)(=O)c1ccc(C)cc1	2.8µM*	-6%
CCOc1ccc(CNC(=O)Cn2c(=O)c3cccn3c3ccccc32)cc1	?	-3%
O=C(NCc1ccc(F)cc1)c1ccc2oc(=O)n(Cc3ccccc3)c2c1	?	?
COCCn1c(SCC(=O)c2c[nH]c3ccccc23)nc2cc(C(=O)NC(C)C)ccc2c1=O	11%	-29%
COc1cccc(N2CC(NC(=O)c3ccc(S(=O)(=O)N4CCCCC4)cc3)CC2=O)c1 (stereo not drawn)	12%	?
CCN(C(=O)CSc1nc2ccccc2n1CC(=O)N(C)C1CCCCC1)c1ccccc1	?	-22%
CC1=C(C(=O)Nc2cccc(C(F)(F)F)c2)C2(CCN(C(C)C)CC2)OC1=O	-14%	3%
COc1ccc(NC(=O)Cn2cnc3ccc(S(=O)(=O)N4CCC(C)CC4)cc3c2=O)cc1Cl	?	-12%
Cc1c(C(=O)NC(C)c2ccccc2)sc2ncnc(N(C)C3CCCCC3)c12 (stereo not drawn)	?	-22%
Cn1ccc2cc(S(=O)(=O)N3CCCN(C(=O)Nc4ccc(Br)cc4)CC3)ccc21	?	-31%

Other records follow.
SMILES	PMP22 txn	HTT prom inh
CCOC(=O)Cn1c(=O)n(CC2CCCO2)c2nc(-c3ccc(OCC)cc3)nc(C(N)=O)c21 (stereo not drawn)	-8%	-8%
Cc1cccc(N(C)C(=O)CS(=O)(=O)c2cccc3nsnc23)c1	-10%	-6%
Cc1noc(NS(=O)(=O)c2ccc(NC(=O)COc3ccccc3Br)cc2)c1C	0%	?
Cc1ccc(CNC(=O)c2cc3sc(Cl)cc3n2C)cc1	13%	-30%
CCOc1ccc(NC(=O)CN(C)S(=O)(=O)c2cnc[nH]2)cc1	2%	3%
CC(=O)N1CCCc2cc(S(=O)(=O)N3CCC(N(C)C(C)C)CC3)ccc21	-18%	-7%
COc1ccc2c(c1)c1c(c(=O)n(-c3cc(Cl)ccc3C)c(=O)n1Cc1ccc(F)cc1)n2C	-1%	-13%
C[C@H](Cc1ccc(O)c(O)c1)[C@@H](C)Cc1ccc(O)c(O)c1	·	?
CCOC(=O)c1cc(-c2ccc(F)cc2)n(CCC(=O)NC2CCCCC2)c1C	-16%	?
CCC(=O)O[C@]1(C(=O)CCl)[C@@H](C)C[C@H]2[C@@H]3CCC4=CC(=O)C=C[C@]4(C)[C@@]3(F)[C@@H](O)C[C@@]21C	·	-10%&2%
CCCC12CN3CC(CCC)(CN(C1)C3c1c(C)[nH]c(=O)[nH]c1=O)C2=O (stereo not drawn)	-3%	-8%
CCCC(=O)Nc1cc(-c2nc3cccnc3s2)ccc1C	-27%	53%[activator]
COC(=O)c1ccc(Cn2c(SCC(=O)N(C)c3ccccc3)nc3ccccc32)cc1	83%	-5%
COCCN1CCN(Cc2ccc(C(=O)NC(C)C)cc2)C(=O)C1=O	-17%	19%
COc1ccc(-c2coc3c2c(C)cc2oc(=O)c(CC(=O)O)c(C)c23)cc1	-22%	16%

One compound at a time, from the list above:
CCOC(=O)Cn1c(=O)n(CC2CCCO2)c2nc(-c3ccc(OCC)cc3)nc(C(N)=O)c21 (stereo not drawn) in the list: PMP22 txn: -8%; HTT prom inh: -8%
COCCN1CCN(Cc2ccc(C(=O)NC(C)C)cc2)C(=O)C1=O in the list: PMP22 txn: -17%; HTT prom inh: 19%

Following part
SMILES	PMP22 txn	HTT prom inh
Cc1ccc(CNC(=O)C2CCN(S(=O)(=O)c3cccc4nonc34)CC2)cc1	-43%	-7%
CCc1nc(SCC(=O)Nc2ccc(NC(C)=O)cc2)n[nH]1	6%	-8%
O=C(CCc1ccccc1)N(Cc1cccnc1)c1nc2ccc(F)cc2s1	?	-13%
CCOC(=O)c1cccc(NS(=O)(=O)c2ccc(-c3cnc(C4CC4)o3)cc2)c1	11µM*	?
COc1ccccc1NC(=O)CCC(=O)N1CC(C)Oc2ccc(C)cc21 (stereo not drawn)	45%	-26%
COc1ccc(C(=O)NNc2ncnc3c2cnn3-c2ccccc2)cc1	3%	-22%
Cc1ccc(-c2nc(CS(=O)CC(=O)NCc3ccccc3Cl)c(C)o2)cc1 (stereo not drawn)	-18%	-6%
CCOC(=O)c1ccc(NC(=O)c2cn(-c3ccccc3)nc2-c2ccc(C)cc2)cc1	-8%	0%
CCC(=O)N1CCc2cc(OC)c(OC)cc2C1COc1ccc2c(C)cc(=O)oc2c1 (stereo not drawn)	-2%	-13%
